Assay outcomes deposited in PubChem BioAssay by National Center for Advancing Translational Sciences (NCATS).
Methyltransferases = Primary Screen for Target Class Profiling of Small Molecule Inhibitors of Methyltransferases. AID 1745853, 2022. calls only at 40 µM. purified enzyme, MTase-Glo SAH luminescence; stronger effect = lower value. actives 3.9% (n = 25,000); active = -50% or lower on at least one of six enzymes; inconclusive = the cases between; inactive = as a rule above -30% on all six;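 also: enzymes were COMT GAMT GNMT HNMT NNMT and PNMT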
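Each enzyme was reacted with SAM and its substrate, with compounds tested once at 40 uM; SAH formed was read by MTase-Glo luminescence.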
Calls only; i = inactive; ? = inconclusive; + = active, no number. % is scaled to controls: 0 for no effect and ±100 for the full control effect. These rows are one share of the data; the hit share may differ from the screen's.

mol | Methyltransferases
COc1cc(CCO)ccc1O[C@@H]1O[C@H](CO)[C@@H](O)[C@H](O)[C@H]1O | i
Cn1c(=O)n(C)c2cc(S(=O)(=O)N3CCc4ccccc4C3)ccc21 | i
COc1ccccc1CNc1nc2c(-c3cccc(F)c3)nnn2c2ccccc12 | i
N#CC1CCN(C(=O)C2CCN(C(=O)c3ccc(-c4cncnc4)cc3)CC2)CC1 | i
CCc1nc(-c2c3n(c(=O)n(CC(=O)Nc4cc(C)on4)c2=O)CCCC3)no1 | i
O=C(CCn1ccc2cc(S(=O)(=O)N3CCCCC3)ccc21)NCC1CCCO1 (configuration not stated) | i
CC1CCC2(C(=O)O)CCC3(C)C(=CCC4C5(C)CCC(OC(=O)/C=C/c6ccccc6)C(C)(C)C5CCC43C)C2C1C (configuration not stated) | i
O=c1cc(-c2ccccc2)c2ccc(OCc3ccccc3F)cc2o1 | i
O=C(NC1CCN(c2cc(-c3ccc(Cl)cc3)[nH]n2)C1)c1ccc(Br)o1 (configuration not stated) | i
O=C(O)c1cccc(-c2noc(-c3ccccc3F)n2)c1 | i
O=S(=O)(NCCn1c(-c2ccncc2)nc2ccccc21)c1ccccc1 | i
COC(=O)c1cc2n(n1)CC(C)(C(=O)NC1CCC(C)CC1)N(Cc1ccccc1Cl)C2=O (configuration not stated) | i
CC(C)CCO[C@H]1COCCN(C2CCN(C)CC2)C1 | i
COc1ccccc1N1CCN(C(=O)Cn2c(C)cc3nc4n(c(=O)c32)CCCCC4)CC1 | i
NC1CCCCN(C(=O)c2ccc3n[nH]nc3c2)C1 (configuration not stated) | i
CCNC(=O)[C@@H]1C[C@H](NC(C)=O)CN1C1CCN(c2ccc(C)cc2)CC1 | i
COCCN1CCCCCC(O)c2cc(C(=O)Nc3ccc(C)cc3)ccc21 (configuration not stated) | i
O=C1CCCC2=C1C(c1[nH]ncc1Cl)N=C(Nc1nc3ccccc3o1)N2 (configuration not stated) | ?
N#Cc1cnc2c(Cl)cc(NCc3cn(CCN4CCCCCC4)nn3)cc2c1Nc1ccc(F)c(Cl)c1 | +
CC(C)(C)c1cc2n(n1)CC(C)(C(=O)NCc1ccccc1)N(Cc1ccccc1Cl)C2=O (configuration not stated) | i
Cc1ccc(OCC(=O)c2ccc3c(c2)N(CCCC(=O)N2CCCC2)C(=O)CO3)cc1C | i
COC(=O)[C@@]1(C)CC[C@]2(C(=O)O[C@@H]3O[C@H](CO)[C@@H](O)[C@H](O)[C@H]3O)CC[C@]3(C)C(=CCC4[C@@]5(C)CC[C@H](O[C@@H]6O[C@H](C(=O)O)[C@@H](O)[C@H](O)[C@H]6O)C(C)(C)C5CC[C@]43C)[C@@H]2C1 (some centres not stated) | i
COC(=O)CC1OC(C)C2=C(O)c3c(O)cccc3C(=O)C23OC13 (configuration not stated) | +
Cc1cccc(NC(=O)c2cc3n(n2)CC(C)(C(=O)NCc2ccc(F)cc2)N(C)C3=O)c1C (configuration not stated) | i
COc1ccccc1CN1CCC(CN(CC(C)C)C(=O)C2C=CCN2)CC1 (configuration not stated) | i
COc1ccc(-c2noc(C(=O)O)c2[C@@H](C)NC(=O)C2CCCCC2)cc1 | i
C[N+]1(CCCCC[N+]2(C)CCCC2)CCCC1 | i
CNC(=O)c1ccc2cc([C@@]3(O)CCn4cncc43)ccc2c1 | i
COc1ccc(N2C(=O)c3cc4oc(C)cc4n3CC2(C)C(=O)NC2CCCCCC2)cc1OC (configuration not stated) | i
Cn1c(=O)c2ccccc2n2c(CCC(=O)NCCCN3CCN(c4cccc(Cl)c4)CC3)nnc12 | i

5 structures from above, arranged by SMILES length, falling:
mol | Methyltransferases
COC(=O)[C@@]1(C)CC[C@]2(C(=O)O[C@@H]3O[C@H](CO)[C@@H](O)[C@H](O)[C@H]3O)CC[C@]3(C)C(=CCC4[C@@]5(C)CC[C@H](O[C@@H]6O[C@H](C(=O)O)[C@@H](O)[C@H](O)[C@H]6O)C(C)(C)C5CC[C@]43C)[C@@H]2C1 (some centres not stated) | i
CC1CCC2(C(=O)O)CCC3(C)C(=CCC4C5(C)CCC(OC(=O)/C=C/c6ccccc6)C(C)(C)C5CCC43C)C2C1C (configuration not stated) | i
COC(=O)CC1OC(C)C2=C(O)c3c(O)cccc3C(=O)C23OC13 (configuration not stated) | +
O=S(=O)(NCCn1c(-c2ccncc2)nc2ccccc21)c1ccccc1 | i
CNC(=O)c1ccc2cc([C@@]3(O)CCn4cncc43)ccc2c1 | i

Six consecutive entries out of the list so far, quoted:
mol | Methyltransferases
COc1ccccc1CN1CCC(CN(CC(C)C)C(=O)C2C=CCN2)CC1 (configuration not stated) | i
COc1ccc(-c2noc(C(=O)O)c2[C@@H](C)NC(=O)C2CCCCC2)cc1 | i
C[N+]1(CCCCC[N+]2(C)CCCC2)CCCC1 | i
CNC(=O)c1ccc2cc([C@@]3(O)CCn4cncc43)ccc2c1 | i
COc1ccc(N2C(=O)c3cc4oc(C)cc4n3CC2(C)C(=O)NC2CCCCCC2)cc1OC (configuration not stated) | i
Cn1c(=O)c2ccccc2n2c(CCC(=O)NCCCN3CCN(c4cccc(Cl)c4)CC3)nnc12 | i

(listing goes on)
mol | Methyltransferases
O=C(NCCN1CCC(n2c(=O)[nH]c3ccccc32)CC1)c1cc2cc(F)ccc2[nH]1 | ?
COc1ccc(-c2cc3n(n2)CC(C)(C(=O)NC2CCCCC2)N(CCCOC(C)C)C3=O)cc1 (configuration not stated) | i
C=CCNC(=O)N[C@H]1CCN(C(=O)CSC)[C@@H]1C(=O)N1CCC[C@@H]1C(N)=O | i
CC(C)=C1CC2C(CCC2(C)O)C(C)(O)CC1=O (configuration not stated) | +
COc1cccc(CN2C(=O)CSc3c(c4ccccc4n3C)C2C(=O)NCCC(C)C)c1 (configuration not stated) | i
CC1(C(=O)NC2CCCCC2)Cn2c(ccc2-c2ccccc2)C(=O)N1Cc1ccc2c(c1)OCO2 (configuration not stated) | i
CC(NC(=O)[C@H](Cc1ccccc1)NC(=O)OCc1ccccc1)C(=O)CF (some centres not stated) | i
O=C(O)C1CN(Cc2ccc(-c3nc4cc(Cc5ccccc5F)ccc4s3)c(F)c2)C1 | i
CCn1ccnc1CN(C)c1cc(C2CC(N)C2)nc(COC)n1 (configuration not stated) | i
COc1cc(N2CCC(O)CC2)ccc1Nc1nc(Nc2ccccc2S(=O)(=O)C(C)C)c2[nH]cnc2n1 | ?
O=C1CN(Cc2ccccc2F)S(=O)(=O)c2ccccc2N1Cc1ccc(F)cc1 | i
Cc1nn(C)c(C)c1CCC(=O)NC1CCc2nnc(C3CC3)n2CC1 (configuration not stated) | i
CCN(CC)C(=O)[C@@H]1CCCN1C1(C(=O)NC)COC1 | i
Cc1cc(C)n(CCCN(C)C(=O)C2C3C(=O)N(CCC(C)C)C[C@@]34C=C[C@@H]2O4)n1 (some centres not stated) | i
CN1C(=O)c2cc(C(=O)Nc3ccc(F)cc3F)nn2CC1(C)C(=O)NC1CCCCCC1 (configuration not stated) | i
CC1(C(=O)NC2CCCCC2)Cn2c(cc3ccccc32)C(=O)N1Cc1cccc(F)c1 (configuration not stated) | i
Cc1ccnn1-c1ccc(C(=O)N2CCN(S(=O)(=O)c3ccc(Cl)c(C(F)(F)F)c3)CC2)cc1 | i
Cc1ccccc1Cn1nc2n(CCC(C)C)c(=O)c3ccc(C(=O)NCC(C)C)cc3n2c1=O | i
Cc1nccn1CC(=O)N1CCCn2cc(-c3cccc(C#N)c3)nc21 | ?
Cc1ccc(S(=O)(=O)NCCn2c(C(F)(F)F)nc3ccccc32)cc1 | i
O=c1c2ccccc2nc(SCc2ccccc2Cl)n1CCN1CCOCC1 | i
CC(C)CCNC(=O)C1c2c(n(C)c3ccccc23)SCC(=O)N1c1ccc(F)cc1 (configuration not stated) | i
CC(=O)Nc1ccc(N2C(=O)c3ccc(-c4ccco4)n3CC2(C)C(=O)NCc2ccccc2)cc1 (configuration not stated) | i
CCCn1c(=O)c2ccc(C(=O)NC(C)CC)cc2n2c(=O)n(CC(=O)c3cccc(Cl)c3)nc12 (configuration not stated) | i
NC(=O)c1cccc(CN2CCCC3(Cc4ccccc4N(C(=O)c4ccc(Cl)cc4)C3)C2)c1 (configuration not stated) | i
Cc1ccc(NC(=O)c2cc3n(n2)CC(C)(C(=O)NC2CCCCC2)N(C)C3=O)c(C)c1 (configuration not stated) | i
COCCCn1c(C)cc(C(=O)N[C@@H]2CN(C)C[C@H]2CN(C)C)c1C | i
O=C(CCCc1nnc2n3nc(-c4ccccc4)nc3c3ccccc3n12)N1CCN(C2CCCCC2)CC1 | i
C=CCNC(=O)N[C@H]1C[C@@H](C(=O)N[C@@H](Cc2ccc(OC)cc2)C(N)=O)N(C(=O)CC(C)(C)C)C1 | i
COC(=O)c1ncn2c1C(=O)N(c1ccc(C(C)C)cc1)C(C)(C(=O)NCCCOC(C)C)C2 (configuration not stated) | i

Following part.
Molecule	Methyltransferases
COc1ccc2c(c1)c(NC(C)=O)c1n2CC(C)(C(=O)NC2CCCC2)N(Cc2ccccn2)C1=O (configuration not stated)	i
COC(=O)c1ncn2c1C(=O)N(Cc1cccs1)C(C)(C(=O)NC1CCCCC1)C2 (configuration not stated)	i
COc1cc2c(cc1OC(C)C)[C@H](c1ccc(Cl)cc1)N(c1ccc(N(C)CC3CCC(N4CCN(C)C(=O)C4)CC3)cc1)C(=O)C2 (some centres not stated)	i
COc1cccc(CCNC(=O)c2c(C)noc2-c2ccco2)c1	i
COc1cccc(-c2ccc(C(=O)NCCNC(=O)C3CCCC3)cc2)c1	i
CC(C)Cn1c(=O)c2ccccc2n2c(SCC(=O)Nc3cc(F)ccc3F)nnc12	i
O=C(NCC(=O)N1CCCC1)Nc1ccc2ccccc2c1	?
COc1ccc(Cn2c3c(c(=O)n2Cc2ccccc2)CCN(Cc2c(C)noc2C)C3)cc1	i
COc1ccc(OC)c(S(=O)(=O)NCC2CNCCOC2)c1 (configuration not stated)	i
CCN1C(=O)c2c(C(=O)NCCc3ccc(OC)c(OC)c3)ncn2CC1(C)C(=O)NC1CCCC1 (configuration not stated)	i
CCOCCCN1C(=O)c2cc3sc(CC)cc3n2CC1(C)C(=O)NC1CCCCCC1 (configuration not stated)	i
CC(C)NC(=O)c1ccc2c(=O)n(C(C)C)c3n[nH]c(=O)n3c2c1	i
COc1ccccc1CN1C(=O)c2ccc(-c3ccco3)n2CC1(C)C(=O)NC1CCCC1 (configuration not stated)	i
O=C1NCCCc2c1oc1ccc(O)cc21	?
Cc1ccccc1NC(=O)CSc1nnc2n(CCCOC(C)C)c(=O)c3ccccc3n12	i
COCC(=O)N1CCN(CC(=O)NCc2cccs2)[C@H]2CS(=O)(=O)C[C@H]21	i
Cc1ccc(N2C(=O)c3cc4sccc4n3CC2(C)C(=O)NC2CCCCC2C)cc1C (configuration not stated)	i
CC1(C(=O)NC2CCCCCC2)Cn2c(c(-n3cccc3)c3cc(F)ccc32)C(=O)N1Cc1ccccc1 (configuration not stated)	i
CCN(CCCNC(=O)CCc1nnc2n(Cc3ccc(F)cc3)c(=O)c3ccccc3n12)c1cccc(C)c1	i
O=C(O)c1ccnc(-c2cc(C(=O)NCCc3ccccc3)ccn2)c1	?
CC1(C(=O)NCc2ccc(Cl)cc2)Cn2c(nc3ccccc32)C(=O)N1C1CC1 (configuration not stated)	i
O=C(Nc1ccccc1)N1CCC2(C1)C(=O)N(CCc1ccccc1)c1ccccc12 (configuration not stated)	i
Cc1ccc(CCNC(=O)C2CCN(c3cc(C(F)(F)F)ncn3)CC2)cc1	i
CCCC1c2ccc(C)n2CCN1C(=O)NCc1ccccc1 (configuration not stated)	i
C[C@@]12C[C@]3(O)O[C@H](O1)[C@]1(COC(=O)c4ccccc4)[C@H]3C[C@@]12O[C@@H]1O[C@H](COC(=O)c2ccccc2)[C@@H](O)[C@H](O)[C@H]1O	i
CC(C)n1c(=O)c2ccc(C(=O)NC3CCCCC3)cc2n2c(=O)n(Cc3c(F)cccc3Cl)nc12	i
CC(C)C1c2cccn2CCN1C(=O)Nc1ccccc1C(F)(F)F (configuration not stated)	i
COc1ccc2cc3n(c2c1)CC(C)(C(=O)NCC1CCCO1)N(Cc1ccccc1F)C3=O (configuration not stated)	i
CNCCN(C)C(=O)C1CCCN(C2CCN(C3Cc4ccccc4C3)CC2)C1 (configuration not stated)	i
OCc1nnc(C2CC(Nc3ncnc4ccccc34)C2)n1C1CC1 (configuration not stated)	i
COC(=O)c1ccc(C2Nc3c(C)cc(C)cc3C3C=CCC32)cc1 (configuration not stated)	i
Cc1ccc(NC(=O)N2CCN(c3nc(N)nc4sc(-c5cccnc5)nc34)CC2)cc1	i
CC(NC(=O)C(O)C(C)C)C(=O)NC1C(=O)N(C)CCc2ccccc21 (configuration not stated)	?
CCCN(CCN1CCN(c2ccccc2OC)CC1)C1CCc2ncsc2C1 (configuration not stated)	i
COc1ccc(NC(=O)CSc2nnc3n(Cc4ccccc4)c(=O)c4ccccc4n23)cc1	i
CN(C)c1cccc(-c2cnc(NC(=O)c3ccncc3)c3c2CCO3)c1	i
OC[C@H]1O[C@@H](n2cnc3c(NCc4ccc(O)cc4)ncnc32)[C@H](O)[C@@H]1O	i
O=C1NC(Cc2c[nH]c3ccccc23)C(=O)NC1Cc1c[nH]c2ccccc12 (configuration not stated)	i
CC(C)CCn1c(=O)c2ccc(C(=O)NC3CCCC3)cc2n2c(=O)n(Cc3ccc(F)cc3)nc12	i
Cc1ccc(-n2cccc2CC(=O)N2CCCC2)cc1	i
Oc1ccc(/C=C/c2ccc(/C=C/c3ccc(O)cc3)c(Br)c2)cc1	i
CC(=O)c1ccc(NC(=O)N[C@H]2CCN3C(=O)[C@@H](Cc4ccccc4)NC(=O)[C@H]23)cc1	i
Cc1ccc(Nc2nccc(N(C)c3ccc4c(C)n(C)nc4c3)n2)cc1S(N)(=O)=O	+
CCC(NC(=O)CC(NC(=O)C(CO)NC(=O)C(CC)NC(=O)c1ccc[nH]1)c1ccccc1)C(=O)O (configuration not stated)	i
COC(=O)c1ccc([C@@H]2Nc3c(OC)cc(OC)cc3[C@@H]3C=CC[C@@H]32)cc1	i
